TRPML1 agonist = qHTS for Agonists of the Human Mucolipin Transient Receptor Potential 1 (TRPML1); Mucolipin-1 (Homo sapiens), Q9GZU1; TRPML1-expressing cells, Ca2+ dye fluorescence, FDSS; host cell line not named in the record; reference of the full effect not given here; activation, % (no concentration beside the values); 410,000 compounds, 0.12% hits; in the data active = activation above about 50%; inconclusive = about 30% to 50%; inactive = below about 30%; further: 0% is about no effect; the text of the record puts the active cut at 80%
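In this qHTS format, compounds were pin-transferred onto Ca8-dye-loaded TRPML1-DL cells induced with Tet overnight, and intracellular Ca2+ fluorescence was recorded kinetically for 110 s after a 10 s baseline. A subsequent 4uM final 54-4 (EC80) addition followed by a second 110 s read served as the antagonist phase.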
D2 PAM = Beta-Arrestin HTS for Positive Allosteric Modulators of the Human D2 Dopamine Receptor: Potentiators | D(2) dopamine receptor (Homo sapiens), P14416 | DiscoveRx D2 beta-arrestin cells, luminescence, 90 min; 100% = 57 uM dopamine signal | potentiation, % (concentration not given with the values) | 360,000 compounds, 0.23% hits; active = potentiation of 50% or more; inconclusive = 30% to 50%; inactive = 30% or less;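 further: tested on top of an EC20 dose of dopamine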
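PathHunter beta-arrestin assay in DiscoveRx D2 cells. Compounds were added with an EC20 of dopamine (50 nM final) for 90 min at 37 deg C. Luminescence was read 1 h after detection reagent, with 57 uM dopamine as the EC100 control.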
PINK1 modulator = A Quantitative High throughput Screen to Identify Chemical Modulators of PINK1 Expression; PINK1 immunofluorescence, high-content cytometry, 24 h; 410,000 compounds, 0.2% hits; AID 624263, 2012; Potency, µM (highest dose often 76.6 µM), without a hit: at the top dose activation (PINK1 increase), usual class: activators; active = well fitted activation curve with a large enough effect; inconclusive = small, poorly fitted or top-dose-only effect; inactive = flat fitted curve, though single readings scatter; cell line not stated here;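 further: potency means the concentration at half of the fitted maximal effect; % of control where 0% means no effect; nearly all actives have a fitted effect of over 65% in size; a mitochondrial uncoupler was the plate control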
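PINK1 protein, normally rapidly degraded, was detected by immunofluorescence after 24 hour compound treatment of a stable cell line. Titration data (5 concentrations) came from laser-scanning cytometry, with CCCP-treated wells as controls.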
Six1-Eya2 blk = qHTS Assay for Inhibitors of the Six1/Eya2 Interaction; AlphaScreen GST-Six1/His-Eya2 binding, biochemical; hits give low values; control for the full effect not named in the record; Homeobox protein SIX1 (Homo sapiens) + Protein phosphatase EYA2 (Homo sapiens), …; activity change, % (no concentration beside the values); AID 651725, 2012; 360,000 compounds, 0.56% hits; in the data active = activity change below about -65%; inconclusive = about -30% to -65%; inactive = above about -30%; further: on the % scale 0 is the no-effect control and ±100 the full control effect
Target sequence (O00167 whole entry, looked up): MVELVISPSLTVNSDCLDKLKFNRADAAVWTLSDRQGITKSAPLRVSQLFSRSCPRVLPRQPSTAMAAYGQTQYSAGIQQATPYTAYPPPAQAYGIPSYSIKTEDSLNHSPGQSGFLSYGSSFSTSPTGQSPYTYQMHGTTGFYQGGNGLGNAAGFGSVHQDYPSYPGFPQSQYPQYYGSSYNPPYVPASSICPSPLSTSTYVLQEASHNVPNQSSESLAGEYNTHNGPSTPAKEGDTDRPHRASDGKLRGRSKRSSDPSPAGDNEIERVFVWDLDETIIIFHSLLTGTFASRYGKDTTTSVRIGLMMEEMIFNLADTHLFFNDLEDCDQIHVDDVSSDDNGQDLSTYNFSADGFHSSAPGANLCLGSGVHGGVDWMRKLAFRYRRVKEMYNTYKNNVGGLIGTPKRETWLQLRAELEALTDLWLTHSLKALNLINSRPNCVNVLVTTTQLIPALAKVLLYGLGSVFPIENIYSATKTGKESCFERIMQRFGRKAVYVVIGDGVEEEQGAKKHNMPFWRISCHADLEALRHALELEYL
Target sequence (Q15475 whole entry, looked up): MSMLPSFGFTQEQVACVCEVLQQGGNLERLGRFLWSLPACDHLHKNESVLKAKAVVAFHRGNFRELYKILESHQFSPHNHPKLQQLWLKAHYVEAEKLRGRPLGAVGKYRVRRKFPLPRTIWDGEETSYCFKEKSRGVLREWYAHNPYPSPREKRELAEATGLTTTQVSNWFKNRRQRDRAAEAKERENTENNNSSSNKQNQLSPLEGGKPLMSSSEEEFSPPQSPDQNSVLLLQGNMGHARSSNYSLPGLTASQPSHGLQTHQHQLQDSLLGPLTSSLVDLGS
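Six1/Eya2 binding was read as AlphaScreen signal after compounds were pinned into GST-Six1 plus His-tagged Eya2 (5X stock 250/500 nM) in pH 8.0 Tris/NaCl/TCEP buffer, beads added, then incubated 1 h, 37 C, dark.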
TRPML1 blocker = qHTS for Inhibitors of the Human Mucolipin Transient Receptor Potential 1 (TRPML1). Mucolipin-1 (Homo sapiens), Q9GZU1. TRPML1-inducible cells, Ca2+ dye fluorescence, FDSS; hits give low values; inhibition of EC80 agonist-evoked calcium signal. activity change, negative = inhibition, % (no concentration beside the values). 390,000 compounds, 0.02% hits. AID 624415, 2012; in the data active means activity change below about -50%; inconclusive means about -30% to -50%; inactive means above about -30%;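 further: stimulus is agonist 54-4 at its EC80 concentration; on the % scale 0 is the no-effect control and ±100 the full control effect; compound concentration not given in the record; the text of the record puts the active cut at -80%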
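Tet-induced TRPML1-DL cells loaded with Ca8 no-wash calcium dye were read kinetically on FDSS. Compound addition was followed by EC80 agonist 54-4 (4 uM final); inhibition was read over 110 s.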
D2 agonist = Beta-Arrestin HTS for Positive Allosteric Modulators of the Human D2 Dopamine Receptor: Agonists | activation, % (test concentration not listed) | DiscoveRx PathHunter D2 beta-arrestin, luminescence, 90 min; 100% = 57 uM dopamine signal | D(2) dopamine receptor (Homo sapiens), P14416 | 360,000 compounds, 0.084% hits; in the data active = activation above about 40%; inconclusive = about 15% to 40%; inactive = below about 15%; further: compound concentration not given in the record; the text of the record calls up to 30% inactive
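Agonist mode: compounds alone added to overnight-plated D2 PathHunter cells for 90 min at 37 C, with 57 uM final dopamine (EC100) defining full response. Beta-arrestin recruitment detected by chemiluminescent reagent, read after 1 h at ambient temperature.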
* = called active by the depositor; & = joins results of further samples; [ ] = another dose, or the depositor's remark.

CC1CCCN(CC(=O)Nc2ccc(S(=O)(=O)N3CCCCC3)cc2)C1 (stereo not given) was read as TRPML1 agonist -0.3, D2 PAM -18, PINK1 modulator 3.9%[38.3 µM], Six1-Eya2 blk -2, TRPML1 blocker 7 and D2 agonist -1.5.
Screening CC(=O)Nc1ccc(NC(=O)c2cc(-c3cc(C)c(C)cc3O)n[nH]2)cc1 returned TRPML1 agonist -0.2, D2 PAM -3, PINK1 modulator 6.7%, Six1-Eya2 blk -24, TRPML1 blocker 9 and D2 agonist 0.3.
Screening COc1ccc2[nH]cc(CCNC(=O)COc3ccc4ccc(=O)oc4c3)c2c1 returned D2 PAM 4, PINK1 modulator -0.5%, Six1-Eya2 blk -10 and D2 agonist 9.3.
CCN1CCc2c(sc(NC(=O)c3ccc(S(=O)(=O)N4CCCC(C)C4)cc3)c2C(=O)OC)C1 (stereo not given) was read as TRPML1 agonist 1.1, PINK1 modulator -2.2% and TRPML1 blocker -9.
Screening Cc1cccc(N2CCN(C(=O)c3cc4c(=O)n(C)c5ccccc5c4s3)CC2)c1C returned TRPML1 agonist -0.2, PINK1 modulator -0.4% and TRPML1 blocker -3.
Screening Clc1ccc(Cn2ncc3c(N4CCN(c5ccccc5)CC4)ncnc32)cc1 returned TRPML1 agonist 3.5, D2 PAM 6, PINK1 modulator 0.7%, Six1-Eya2 blk 27, TRPML1 blocker 73 and D2 agonist 11.
`COc1cc(CNc2ncnc3c2ncn3[C@H]2CN(Cc3ccco3)C[C@@H](CO)O2)cc(OC)c1OC` gave TRPML1 agonist -0.5, D2 PAM 3, PINK1 modulator 3.7%, Six1-Eya2 blk 5 and D2 agonist 10.
C[C@]12C(=O)N(c3cccc(Cl)c3)C(=O)N1[C@@H]1c3ccccc3OC[C@@H]1[C@H]2c1ccccc1 was read as TRPML1 agonist 1.5, D2 PAM -5, PINK1 modulator 2.0%, Six1-Eya2 blk -3, TRPML1 blocker 52 and D2 agonist -2.5.
CC1=C(C(=O)N2CCOCC2)CC(CC(=O)NCCN2CCOCC2)C(=O)N1CCC1=CCCCC1 (stereo not given) was read as TRPML1 agonist -0.3, D2 PAM 6, PINK1 modulator 2.2%, Six1-Eya2 blk -6, TRPML1 blocker -7 and D2 agonist 0.9.
Screening COc1ccc(OCC(=O)N/N=C(\C)CC(=O)Nc2ccc(NC(C)=O)cc2)cc1 returned TRPML1 agonist 0.3, D2 PAM -5, PINK1 modulator 0.9%, Six1-Eya2 blk -7, TRPML1 blocker 6 and D2 agonist 1.3.
Screening CCN(C(=O)CSc1nnc(C)n1Cc1ccccc1)C1CCS(=O)(=O)C1 (stereo not given) returned TRPML1 agonist -0.3, D2 PAM -3, PINK1 modulator -0.4%, Six1-Eya2 blk 10, TRPML1 blocker 3 and D2 agonist -0.2.
`CCOc1ccc(-c2noc(CCC(=O)NC3CCCCC3)n2)cc1OC` gave TRPML1 agonist -0.7, D2 PAM -11, PINK1 modulator 6.5%, Six1-Eya2 blk -1, TRPML1 blocker -1 and D2 agonist -4.8.
For CCCCCCC1CC(/C(C)=N\NC(N)=O)OC1=O (stereo not given) the results were TRPML1 agonist 0.6, D2 PAM 1, PINK1 modulator 0.4%, Six1-Eya2 blk 0, TRPML1 blocker 13 and D2 agonist 3.5.
`COC(=O)c1c(NC(=O)C2CC=CCC2C(=O)O)sc2c1CCCCC2` (stereo not given) gave TRPML1 agonist -0.5, D2 PAM -12, PINK1 modulator -1.7%, Six1-Eya2 blk 8, TRPML1 blocker -2 and D2 agonist 0.5.
For CCC1CCC2(CC1)NC(CO)(CO)CO2 (stereo not given) the results were TRPML1 agonist -0.4, D2 PAM -13, PINK1 modulator 2.8%[38.3 µM], Six1-Eya2 blk 3, TRPML1 blocker -12 and D2 agonist -0.6.
Screening Cc1ccc2nc(SCC(=O)NCc3ccco3)c(C#N)cc2c1 returned TRPML1 agonist -0.1, D2 PAM -3, PINK1 modulator -0.9%, Six1-Eya2 blk -15, TRPML1 blocker -8 and D2 agonist -1.1.
CC1CCCC(NC(=O)Cn2cc([N+](=O)[O-])ccc2=O)C1C (stereo not given) was read as TRPML1 agonist -0.3, D2 PAM 0, PINK1 modulator -0.6%, Six1-Eya2 blk 5, TRPML1 blocker 1 and D2 agonist -3.2.
For COc1cc(O)ccc1/C=N/NC(=O)c1ccc([N+](=O)[O-])cc1 the results were TRPML1 agonist 0.3, D2 PAM -7, PINK1 modulator 0.2%, Six1-Eya2 blk -5, TRPML1 blocker -6 and D2 agonist 12.
For c1ccc(NC2=Nc3ccccc3CC2)cc1 the results were TRPML1 agonist -1.2, D2 PAM -36, PINK1 modulator -0.8%, Six1-Eya2 blk -5, TRPML1 blocker 7 and D2 agonist -3.6.
`CC1CCCN(CCCN2C(=O)C3C(C(=O)Nc4ccc(Cl)cc4)C4C=CC3(O4)C2C(=O)NC2CCCCC2)C1` (stereo not given) gave TRPML1 agonist 0.7, D2 PAM -9, PINK1 modulator 3.0%, Six1-Eya2 blk -4, TRPML1 blocker 10 and D2 agonist -0.6.
For CC1(C(=O)NCc2cccs2)CCN1C(=O)Cc1cccc2ccccc12 (stereo not given) the results were TRPML1 agonist -0.7, D2 PAM -4, PINK1 modulator 0.1%, Six1-Eya2 blk 1 and D2 agonist -5.6.
Screening CC12CCC(C(=O)NCc3ccccc3)(OC1=O)C2(C)C (stereo not given) returned TRPML1 agonist 0.7, D2 PAM -15, PINK1 modulator -0.4%, Six1-Eya2 blk 9, TRPML1 blocker -6 and D2 agonist 0.3.
Screening COc1cccc(-c2cc3nc(NCCCN(C)C)n(C)c(=O)c3s2)c1 returned TRPML1 agonist 0.4, D2 PAM -7, PINK1 modulator 0.9%, Six1-Eya2 blk 11 and D2 agonist -2.9.
COC(=O)c1sc(SC)c(-c2ccon2)c1C was read as TRPML1 agonist 1.2, D2 PAM -2, PINK1 modulator 2.1%, Six1-Eya2 blk 4, TRPML1 blocker 13 and D2 agonist -5.1.
For CCCCC1CCCOC(C(=O)NCCNCCO)(C(F)(F)F)C1 (stereo not given) the results were TRPML1 agonist -0.1&0.1, D2 PAM -2, PINK1 modulator 0.7%, Six1-Eya2 blk 2, TRPML1 blocker -16&1 and D2 agonist 0.5.
`CCOC(=O)C1=C(CN(CC)Cc2ccccc2)NC(=O)NC1c1ccc(Cl)cc1` (stereo not given) gave TRPML1 agonist 0.0, PINK1 modulator inconclusive and TRPML1 blocker 25.
For CS(=O)(=O)N1CCC(C(=O)NCC2CCCO2)CC1 (stereo not given) the results were TRPML1 agonist 0.6, D2 PAM -2, PINK1 modulator 0.5%[38.3 µM], Six1-Eya2 blk -4, TRPML1 blocker 30 and D2 agonist -1.0.
Screening Cc1ccc(-c2nc(C=Nc3cccc(C)c3)c(O)o2)cc1 returned TRPML1 agonist -0.4, D2 PAM -9, PINK1 modulator 7.5%, Six1-Eya2 blk 2, TRPML1 blocker -6 and D2 agonist -5.7.
CNC(=O)C1CCC(Cn2c(=O)c3sccc3n(Cc3ccc(F)cc3)c2=O)CC1 (stereo not given) was read as TRPML1 agonist 0.4, PINK1 modulator 0.3% and TRPML1 blocker 4.
Screening CCOc1ccc(NC(=O)c2ccc(F)c(S(=O)(=O)N3CCCC3)c2)cc1 returned TRPML1 agonist -0.8, D2 PAM -8, PINK1 modulator 1.8%, Six1-Eya2 blk -5, TRPML1 blocker 3 and D2 agonist -0.4.

Sorted by SMILES length (low to high): some entries from above.
COC(=O)c1sc(SC)c(-c2ccon2)c1C was read as TRPML1 agonist 1.2, D2 PAM -2, PINK1 modulator 2.1%, Six1-Eya2 blk 4, TRPML1 blocker 13 and D2 agonist -5.1.
For CCCCC1CCCOC(C(=O)NCCNCCO)(C(F)(F)F)C1 (stereo not given) the results were TRPML1 agonist -0.1&0.1, D2 PAM -2, PINK1 modulator 0.7%, Six1-Eya2 blk 2, TRPML1 blocker -16&1 and D2 agonist 0.5.
Screening Cc1ccc2nc(SCC(=O)NCc3ccco3)c(C#N)cc2c1 returned TRPML1 agonist -0.1, D2 PAM -3, PINK1 modulator -0.9%, Six1-Eya2 blk -15, TRPML1 blocker -8 and D2 agonist -1.1.

The list continues.
Screening CC1(C)CC(=O)C2=C(C1)N(CCN1CCOCC1)C1=C(C(=O)CC(C)(C)C1)C2c1cccc(F)c1 returned TRPML1 agonist 0.3, D2 PAM -20, PINK1 modulator -0.2%, Six1-Eya2 blk 7, TRPML1 blocker 18 and D2 agonist -1.4.
`COc1ccc(CC(=O)NNC(=S)NC(=O)c2cccnc2)cc1` gave TRPML1 agonist -0.5, D2 PAM -15, PINK1 modulator -1.3%, Six1-Eya2 blk 0, TRPML1 blocker -4 and D2 agonist -6.0.
COc1cccc(/C=N/NC(=O)CN(CCc2ccccc2)S(=O)(=O)c2ccc(NC(C)=O)cc2)c1 was read as TRPML1 agonist 1.2, D2 PAM -26, PINK1 modulator 2.2%, Six1-Eya2 blk -10, TRPML1 blocker 3 and D2 agonist 2.1.
For CCc1ccccc1NC(=O)N1CCN(c2nnc(C)c3c(C)n(-c4ccccc4)nc23)CC1 the results were TRPML1 agonist 2.4, PINK1 modulator 2.6% and TRPML1 blocker 1.
For Cc1ccccc1OCC(=O)OCC(=O)Nc1ccc2c(c1)OCO2 the results were TRPML1 agonist 4.3, D2 PAM -13, PINK1 modulator 1.7%, Six1-Eya2 blk -5, TRPML1 blocker 4 and D2 agonist 0.6.
Screening CC(=O)N1N=C(c2ccc(Cl)cc2)OC1(C)C returned TRPML1 agonist -0.1, D2 PAM 2, PINK1 modulator 2.6%, Six1-Eya2 blk 6, TRPML1 blocker -7 and D2 agonist -4.4.
Fc1ccc(OCc2nn3c(Cn4nnc5ccccc54)nnc3s2)cc1 was read as TRPML1 agonist -0.6, D2 PAM -18, PINK1 modulator 1.6%, Six1-Eya2 blk -1, TRPML1 blocker 0 and D2 agonist -1.5.
Screening O=C(c1cccc(NC2=NC3CS(=O)(=O)CC3S2)c1)N1CCN(c2ccc(F)cc2)CC1 (stereo not given) returned TRPML1 agonist -0.2, D2 PAM -5, PINK1 modulator -0.8%, Six1-Eya2 blk 3, TRPML1 blocker -1 and D2 agonist -4.0.
For CCN(CC)S(=O)(=O)c1cc(NC(=O)CN2CCN(c3ccccn3)CC2)ccc1C the results were TRPML1 agonist 3.3, D2 PAM -21, PINK1 modulator 0.0%, Six1-Eya2 blk -3, TRPML1 blocker 36 and D2 agonist 4.2.

High-throughput results deposited in PubChem by National Center for Advancing Translational Sciences (NCATS).

This is a random part of the collection. About 1% of those tested had a hit in this group.
